Screens from PubChem.
Vaccinia inh: blocks a specific stage of Vaccinia orthopoxvirus infection, primary screen, cell-based, single point; activity change (mCherry), % (test concentration not listed); Vaccinia-infected cells, mCherry/Venus stage reporter fluorescence; active compounds read low; some inactives read as strong as hits; 89,000 compounds, 0.01% hits;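 active = mCherry past -33% and 40 or more points under the early reporter, replicates agreeing; inconclusive = past -33% without that gap or agreement; tested in A549 cells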;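 also: scaled between vehicle wells and reference inhibitor wells; 23 nL library stock went into each well; one replicate is shown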
Vaccinia inh Venus: second read-out of Vaccinia inh, no call of its own (marks repeat the call); activity change (Venus), %; measured here: Venus reporter, other viral stage;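 negative = less Venus signal; first of two replicates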
An asterisk follows results filed as active; ? = inconclusive; . = no result given.

SMILES	Vaccinia inh	Vaccinia inh Venus
C/C=C/c1ccc([C@@H]2[C@@H](CO)N3C(=O)CN(C(=O)c4cnccn4)C[C@@H]23)cc1	0	6
C[C@@H]1CN([C@@H](C)CO)C(=O)c2cc(NS(=O)(=O)c3cccs3)ccc2O[C@@H](C)CCCCO[C@@H]1CN(C)S(=O)(=O)c1ccc(F)cc1	-6	1
O=C(C[C@H]1CC[C@@H]2NC[C@@H](O)COC[C@H]2O1)Nc1nccs1	8	20
Cc1noc(C)c1NC(=O)Nc1ccc2c(c1)C(=O)N([C@@H](C)CO)C[C@H](C)[C@H](CN(C)C(=O)Nc1c(C)noc1C)O2	28	21
COc1ccc(NC(=O)N[C@H]2C=C[C@H](CC(=O)NC3CCC3)O[C@H]2CO)cc1	7	15
CNC[C@H]1OCCCC[C@@H](C)Oc2ccc(NC(=O)Nc3ccc(C(F)(F)F)cc3)cc2C(=O)N([C@@H](C)CO)C[C@H]1C	-24	-6
C[C@H]1CN([C@@H](C)CO)C(=O)c2cc(NC(=O)CCC(F)(F)F)ccc2O[C@H]1CN(C)Cc1ccc(Cl)c(Cl)c1	-6	-5
C[C@H](CO)N1C[C@H](C)[C@H](CN(C)S(C)(=O)=O)Oc2ccc(NC(=O)C3CC3)cc2CC1=O	6	0
CCCNC(=O)[C@@H]1[C@@H](CO)[C@@H]2Cn3c(ccc(/C=C/c4ccccc4)c3=O)[C@@H]2N1CCC	-14	-10
CCCN1C[C@H](C)[C@H](OC)CN(C)C(=O)c2ccc(NC(=O)C3CC3)cc2OC[C@H]1C	4	9
C[C@H](CO)N1C[C@H](C)[C@@H](CN(C)S(=O)(=O)c2cccs2)Oc2c(NC(=O)c3cnccn3)cccc2C1=O	-3	-6
C/C=C/c1ccc([C@@H]2[C@@H](CO)N3CCCCN(C(=O)Nc4ccc(F)cc4)C[C@@H]23)cc1	?	.

Next section, starting with the last 2 of the part before.
SMILES	Vaccinia inh	Vaccinia inh Venus
C[C@H](CO)N1C[C@H](C)[C@@H](CN(C)S(=O)(=O)c2cccs2)Oc2c(NC(=O)c3cnccn3)cccc2C1=O	-3	-6
C/C=C/c1ccc([C@@H]2[C@@H](CO)N3CCCCN(C(=O)Nc4ccc(F)cc4)C[C@@H]23)cc1	?	.
COCC#Cc1ccc2c(c1)O[C@@H](CN(C)S(C)(=O)=O)[C@@H](C)CN([C@@H](C)CO)S2(=O)=O	-7	-2
COc1ccc2c3c(n(C)c2c1)[C@@H](CO)N(Cc1cc(F)ccc1F)CC31CCN(C(C)=O)CC1	-5	-4
C[C@H](CO)N1C[C@H](C)[C@H](CN(C)Cc2ccc(Oc3ccccc3)cc2)Oc2ccc(N(C)C)cc2C1=O	-29	-21
C[C@H](CO)N1C[C@H](C)[C@@H](CN(C)Cc2ccncc2)Oc2cc(Br)ccc2S1(=O)=O	-18	-13
C[C@@H]1CN([C@H](C)CO)C(=O)c2cc(NC(=O)CCCN(C)C)ccc2O[C@@H]1CN(C)S(=O)(=O)c1cccs1	21	7
CCNC(=O)C[C@@H]1CC[C@@H]2[C@H](COc3ccc(NC(=O)c4cccc(OC)c4)cc3C(=O)N2C)O1	13	14
CCCC#Cc1ccc([C@H]2[C@H](CO)N3CCCCN(C(=O)NC4CCCC4)C[C@@H]23)cc1	?	.
O=C(C[C@@H]1CC[C@H](NC(=O)c2ccc(F)cc2)[C@H](CO)O1)NCCc1ccncc1	11	13
C[C@@H]1CCCCO[C@H](CN(C)S(=O)(=O)c2cn(C)cn2)[C@@H](C)CN([C@H](C)CO)C(=O)c2cc(NC(=O)CCCN(C)C)ccc2O1	18	13
C[C@@H]1CN([C@H](C)CO)C(=O)Cc2cc(N(C)C)ccc2O[C@@H]1CN(C)CC1CC1	18	7
C[C@@H]1CN([C@@H](C)CO)C(=O)Cc2cc(NC(=O)Nc3ccc(F)cc3)ccc2O[C@H]1CN(C)C(=O)Nc1ccc2c(c1)OCO2	5	7
O=C(C[C@H]1CC[C@H](NC(=O)NC2CCCCC2)[C@@H](CO)O1)NCc1ccccc1	-6	3
Cc1cc(C(=O)Nc2cccc3c2O[C@H](CN(C)S(=O)(=O)c2ccccc2)[C@H](C)CN([C@@H](C)CO)C3=O)n(C)n1	12	10
O=C(C[C@H]1C=C[C@@H](NC(=O)c2ccc3c(c2)OCO3)[C@@H](CO)O1)NCc1ccc(F)cc1	18	16
COc1ccc(NC(=O)N(C)C[C@@H]2OCCCC[C@H](C)Oc3ccc(NS(=O)(=O)c4ccc(OC)cc4)cc3C(=O)N([C@H](C)CO)C[C@H]2C)cc1	-30	-24
O=C(NCC[C@H]1CC[C@@H](NS(=O)(=O)c2cccc(F)c2)[C@H](CO)O1)C1CCCCC1	7	2
Cn1cnc(S(=O)(=O)N2CC[C@@H]3[C@H](CO)Nc4ccc(C#Cc5ccccc5F)cc4[C@@H]32)c1	2	8
C[C@@H]1CN([C@@H](C)CO)C(=O)c2cccc(NC(=O)Nc3ccc(C(F)(F)F)cc3)c2O[C@@H]1CN(C)Cc1ccc(C(F)(F)F)cc1	?	.
CCCN1[C@H](C(=O)NCCOC)[C@@H](CO)[C@@H]2Cn3c(ccc(-c4cccc(C(=O)N(C)C)c4)c3=O)[C@@H]21	7	4
CCCNC(=O)[C@H]1[C@H](CO)[C@H]2Cn3c(ccc(-c4ccccc4)c3=O)[C@@H]1N2C(=O)Nc1ccccc1	1	8
Cc1noc(C)c1NC(=O)Nc1ccc2c(c1)C(=O)N([C@H](C)CO)C[C@@H](C)[C@H](CN(C)S(=O)(=O)c1cccs1)O2	5	-4
CCC(=O)Nc1ccc2c(c1)OC[C@@H](C)N(CC1CC1)C[C@@H](C)[C@H](OC)CN(C)C2=O	8	7
COc1ccc2c3c(n(C)c2c1)[C@H](CO)N(Cc1ccc(F)cc1)CC31CN(CC2CC2)C1	-18	-8
CCS(=O)(=O)Nc1ccc2c(c1)C(=O)N(C)[C@@H]1CC[C@H](CC(=O)N[C@H]3CCN(Cc4ccccc4)C3)O[C@@H]1CO2	0	2

3 of the compounds above, with values under each structure:
Value order: Vaccinia inh, Vaccinia inh Venus
CCCN1[C@H](C(=O)NCCOC)[C@@H](CO)[C@@H]2Cn3c(ccc(-c4cccc(C(=O)N(C)C)c4)c3=O)[C@@H]21
 : 7, 4
CCNC(=O)C[C@@H]1CC[C@@H]2[C@H](COc3ccc(NC(=O)c4cccc(OC)c4)cc3C(=O)N2C)O1
 : 13, 14
C[C@H](CO)N1C[C@H](C)[C@H](CN(C)S(C)(=O)=O)Oc2ccc(NC(=O)C3CC3)cc2CC1=O
 : 6, 0

Next compounds follow.
SMILES	Vaccinia inh	Vaccinia inh Venus
COc1ccc2c3c(n(C)c2c1)[C@@H](CO)N(S(C)(=O)=O)CC31CCN(CC2CCCC2)CC1	-27	-15
CN1C[C@H](O)COC[C@@H]2O[C@@H](CC(=O)NC3CCC3)CC[C@H]21	18	12
CC(C)CC#Cc1cnc2c(c1)C(=O)N([C@@H](C)CO)C[C@H](C)[C@@H](CN(C)Cc1ccccc1F)O2	-18	-19
COC(=O)C[C@H]1CC[C@@H]2[C@H](COc3ccc(NS(=O)(=O)c4ccc(C)cc4)cc3C(=O)N2C)O1	1	3
C[C@@H]1CN([C@H](C)CO)C(=O)c2cccc(NC(=O)C3CCOCC3)c2O[C@@H]1CN(C)C(=O)Nc1ccccc1	10	13
CO[C@H]1CN(C)C(=O)c2ccc(NC(=O)NC(C)C)cc2OC[C@H](C)N(C(=O)CC2CC2)C[C@@H]1C	10	6
COc1ccc(CN(C)C[C@H]2OCCCC[C@@H](C)Oc3ccc(NC(=O)c4ccccc4)cc3C(=O)N([C@@H](C)CO)C[C@H]2C)cc1	-21	-13
COc1ccc(S(=O)(=O)Nc2cccc3c2O[C@@H](CN(C)Cc2ccc(Oc4ccccc4)cc2)[C@H](C)CN([C@@H](C)CO)C3=O)cc1	-15	-2
CC(=O)N1CCCCN2[C@@H](CO)[C@H](c3ccc(C#Cc4ccccc4F)cc3)[C@@H]2C1	?	.
C[C@H](CO)N1C[C@H](C)[C@H](CN(C)S(=O)(=O)c2ccc(F)cc2)Oc2ccc(NS(=O)(=O)c3ccc(F)cc3)cc2C1=O	1	0
COc1ccc(C#Cc2ccc3c(c2)O[C@H](CN(C)C(=O)c2ccccn2)[C@H](C)CN([C@@H](C)CO)S3(=O)=O)cc1	-23	-16
Cn1cnc(S(=O)(=O)N2C[C@@H](O)COC[C@@H]3O[C@H](CC(=O)NC4Cc5ccccc5C4)CC[C@H]32)c1	4	3
COc1ccc(S(=O)(=O)Nc2cccc3c2O[C@H](CN(C)S(=O)(=O)c2cccs2)[C@@H](C)CN([C@H](C)CO)C3=O)cc1	11	10
C[C@H]1CN([C@@H](C)CO)C(=O)c2cccc(NC(=O)c3ccncc3)c2O[C@H]1CN(C)CC1CCCCC1	14	8
Cc1noc(C)c1NC(=O)N(C)C[C@H]1OCCCC[C@H](C)Oc2ccc(NC(=O)Nc3ccc(F)cc3)cc2C(=O)N([C@H](C)CO)C[C@@H]1C	26	20
C[C@H]1CN([C@@H](C)CO)C(=O)c2cccc(NC(=O)C3CC3)c2O[C@H]1CN(C)CC1CC1	0	0
C[C@@H]1CN([C@H](C)CO)C(=O)c2cccc(NS(=O)(=O)c3ccc(Cl)cc3)c2O[C@H]1CN(C)C(=O)Nc1cccc2ccccc12	10	10
COc1ccccc1S(=O)(=O)N[C@@H]1C=C[C@H](CC(=O)N2CCCCC2)O[C@@H]1CO	21	23
O=C(Cc1ccncc1)N[C@H]1CC[C@H](CCn2cc(-c3ccccc3F)nn2)O[C@@H]1CO	-11	-3
CNC[C@@H]1Oc2ccc(NC(=O)C3CCCCC3)cc2C(=O)N([C@@H](C)CO)C[C@@H]1C	17	5
O=C(N[C@H]1CC[C@@H](CC(=O)N2CCCCC2)O[C@@H]1CO)c1ccc2c(c1)OCO2	2	-4
Cc1noc(C)c1NC(=O)Nc1cccc2c1O[C@@H](CN(C)C(=O)Nc1ccc(C(F)(F)F)cc1)[C@@H](C)CN([C@@H](C)CO)C2=O	5	6
CC(C)NC(=O)N1CC2(C1)[C@H](c1ccccc1)[C@@H](CO)N2C(=O)C1CCC1	17	3
CO[C@H]1CN(C)C(=O)c2cc(NS(=O)(=O)c3ccc(Cl)cc3)ccc2OC[C@H](C)N(C)C[C@@H]1C	-6	-2
C[C@H]1CN([C@@H](C)CO)C(=O)CCCn2nncc2CO[C@H]1CN(C)C(=O)Nc1ccccc1	0	-5
CC(C)CNC(=O)[C@@H]1c2ccccc2C(=O)N(CC23CC4CC(CC(C4)C2)C3)[C@H]1c1ccc(CO)cc1	1	7
CCCNC(=O)N[C@@H]1C=C[C@H](CC(=O)N2CCN(C)CC2)O[C@H]1CO	-8	-4
O=C(NCC1CC1)[C@H]1[C@H](CO)[C@H]2Cn3c(ccc(-c4cccnc4)c3=O)[C@H]2N1Cc1cocn1	-2	9
CNC[C@@H]1Oc2ccc(NS(=O)(=O)c3c(C)noc3C)cc2C(=O)N([C@@H](C)CO)C[C@@H]1C	11	0
CNC[C@H]1Oc2ccc(NC(=O)Cc3ccccc3)cc2C(=O)N([C@H](C)CO)C[C@@H]1C	-4	-1
C[C@@H]1CN([C@@H](C)CO)C(=O)c2cc(NC(=O)Nc3cccc4ccccc34)ccc2O[C@H]1CN(C)Cc1ccc2c(c1)OCO2	-23	-16
CCCC#Cc1cnc2c(c1)C(=O)N([C@H](C)CO)C[C@@H](C)[C@@H](CN(C)C(=O)Nc1c(C)noc1C)O2	19	9
COc1ccc(C#Cc2ccc3c(c2)[C@]2(C(=O)N3)[C@H](C(=O)N3CCc4cc(OC)c(OC)cc4C3)[C@H]3C(=O)O[C@H](c4ccccc4)[C@H](c4ccccc4)N3[C@@H]2c2ccc(OCCO)cc2)cc1	15	9
O=C(Cc1cccnc1)N1CC2(C1)[C@H](c1ccccc1)[C@@H](CO)N2C(=O)C1CCCC1	3	5
COc1ccc(CN2C[C@H](C)[C@@H](OC)CN(C)C(=O)c3cc(NC(=O)c4nc5ccccc5s4)ccc3OC[C@H]2C)cc1	-9	-5
C[C@@H]1CN([C@H](C)CO)C(=O)c2cc(NC(=O)Nc3ccc(F)cc3)ccc2O[C@@H]1CN(C)S(=O)(=O)c1ccccc1	-21	-9
Cc1ccc(S(=O)(=O)Nc2cccc3c2O[C@H](CN(C)Cc2ccc(C(=O)Nc4ccccc4N)cc2)[C@@H](C)CN([C@@H](C)CO)C3=O)cc1	-12	-10
CN(C)CC#Cc1ccc([C@@H]2[C@@H](CO)N3CCCCN(C(=O)Nc4ccccc4F)C[C@H]23)cc1	6	7
N#C[C@H]1[C@@H](c2ccccc2)[C@@H](CO)N1C(=O)c1ccccc1F	9	9
CCC(=O)N1CC(=O)N2[C@H](C1)[C@@H](c1ccc(C#CC(C)C)cc1)[C@@H]2CO	8	5
O=C(C[C@H]1C=C[C@H](NS(=O)(=O)c2ccc(F)cc2)[C@H](CO)O1)N1CCN(c2ccccc2)CC1	-4	-3
COC(=O)C[C@@H]1C[C@H]2c3cc(NS(=O)(=O)c4cccc(OC)c4)ccc3O[C@H]2[C@H](CO)O1	2	3
COc1ccc(C(=O)Nc2ccc3c(c2)OC[C@@H](C)NC[C@@H](C)[C@H](OC)CN(C)C3=O)cc1	-2	2

Quoted at random: four records from the list.
SMILES	Vaccinia inh	Vaccinia inh Venus
COc1ccc(C(=O)Nc2ccc3c(c2)OC[C@@H](C)NC[C@@H](C)[C@H](OC)CN(C)C3=O)cc1	-2	2
Cc1ccc(S(=O)(=O)Nc2cccc3c2O[C@H](CN(C)Cc2ccc(C(=O)Nc4ccccc4N)cc2)[C@@H](C)CN([C@@H](C)CO)C3=O)cc1	-12	-10
COC(=O)C[C@@H]1C[C@H]2c3cc(NS(=O)(=O)c4cccc(OC)c4)ccc3O[C@H]2[C@H](CO)O1	2	3
O=C(C[C@H]1C=C[C@H](NS(=O)(=O)c2ccc(F)cc2)[C@H](CO)O1)N1CCN(c2ccccc2)CC1	-4	-3

Not all compounds are listed (hit frequency here may not be typical).
